# Rango release inh: qHTS Assay for Inhibitors of RanGTP induced Rango (Ran-regulated importin-beta cargo) - Importin beta complex dissociation; Biochemical FRET Rango-importin beta, RanGTP-induced dissociation; AID 540253, 2011; Snurportin-1 (Homo sapiens) + GTP-binding nuclear protein Ran (Homo sapiens) + Importin …; hit rate 0.071% among 340,000; Potency, µM (series often up to 46.1 µM), without a hit: at the highest dose activity change, negative = inhibition; active means falling FRET ratio curve, often poorly fitted, with flat reads before Ran was added; inconclusive means other falling curves, or compound fluorescence or quenching; inactive means flat or rising ratio curve;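 further: potency means the concentration at half of the fitted maximal effect; % of control where 0% means no effect; nearly all actives have a fitted effect of over 45% in size; -100% = wells without RanGTP and RCC1; the record marks most hits as doubtful in a second field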
#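 Rango (0.1 uM)–importin beta (0.25 uM) complex; RanGTP-RCC1 trigger; 45 min RT; CFP/YFP FRET read.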
# Rango-impB inh: qHTS Assay for Inhibitors of Rango (Ran-regulated importin-beta cargo) - Importin beta complex formation; Importin subunit beta-1 (Homo sapiens), Q14974; Rango CFP/YFP FRET sensor + importin beta, 45 min; Potency, µM (doses to about 92.2 µM), inactives show top-dose inhibition of complex formation; hit rate 0.031% among 340,000; AID 540263, 2011; active = rising FRET ratio curve, often small or poorly fitted; inconclusive = mostly compound fluorescence or quenching in the first reads; inactive = flat curves in all reads;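 further: potency means the concentration at half of the fitted maximal effect; 0% = DMSO wells and 100% = buffer wells lacking importin beta; nearly all actives have a fitted effect of over 15% in size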
#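 Inhibition scored from the CFP 486 nm/YFP 530 nm FRET ratio 45 min after adding 0.125 microM importin beta to 50 nM Rango biosensor preincubated 5 min with compound (room temperature, PBS with DTT, Tween-20, BSA). No-importin wells as positive control.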
# GLA inh pH 4.5: qHTS Assay for Inhibitors of Human alpha-Galactosidase at pH 4.5; purified enzyme, 4-MU-alpha-Gal fluorescence, pH 4.5; activity change, negative = inhibition, % at 105 µM; 230,000 tested, under 10 active; AID 1467, 2008; inconclusive = small, poorly fitted or top-dose-only inhibition, or a rising curve; inactive = flat fitted curve, though single readings scatter; no compound was filed as active;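 further: 0% = full activity with enzyme and -100% = basal without enzyme; dose as in the result columns while the protocol names 77 µM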
# Target sequence (P06280 whole entry, looked up): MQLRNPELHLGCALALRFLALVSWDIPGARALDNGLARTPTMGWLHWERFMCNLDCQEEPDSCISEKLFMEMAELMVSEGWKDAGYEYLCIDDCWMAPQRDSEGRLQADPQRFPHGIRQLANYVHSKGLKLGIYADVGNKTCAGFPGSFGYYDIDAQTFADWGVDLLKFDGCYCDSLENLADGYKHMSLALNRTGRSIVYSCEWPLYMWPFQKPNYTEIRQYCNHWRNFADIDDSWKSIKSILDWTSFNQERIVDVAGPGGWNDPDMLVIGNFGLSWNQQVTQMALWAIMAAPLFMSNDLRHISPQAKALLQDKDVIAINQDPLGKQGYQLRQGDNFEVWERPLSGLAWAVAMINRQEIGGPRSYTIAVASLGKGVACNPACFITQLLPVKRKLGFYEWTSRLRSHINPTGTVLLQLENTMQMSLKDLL
# miR-21 reporter: qHTS Assay for Modulators of miRNAs and/orActivators of miR-21; 340,000 tested, under 10 active; HeLa miR-21 FLuc reporter, luciferase, 48 h; AID 2288, 2010; Potency, µM (doses to about 38.3 µM), without a hit: top-dose reporter change, positive = more light; active = well fitted rising curve with a large enough effect; inconclusive = small, poorly fitted or top-dose-only effect; inactive = no such curve, though single readings can be large or run the other way;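 further: % of control where 0% means no effect; miR-21 action dims this reporter so a rising signal means less miR-21 action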
#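 Luminescence from a firefly luciferase reporter carrying a miR-21 binding site downstream, stably expressed under a CMV promoter in HeLa cells that make miR-21 endogenously, reports miRNA modulation after 48 h compound exposure up to approximately 40uM final.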
# * marks the source's active call; other numbers are inactive results; ? = inconclusive; nt = no result given; & = joins results of further samples; [ ] = another dose, or the depositor's remark. This is a subset, so the mix of outcomes need not match the whole.
SMILES,Rango release inh,Rango-impB inh,GLA inh pH 4.5,miR-21 reporter
c1ccc(CC2CCN(C(c3cccs3)c3nnnn3C3CCCC3)CC2)cc1 (stereo not drawn),9%,1.2%,-9,-7%
CCCC1CCc2c(sc(N)c2C(N)=O)C1 (stereo not drawn),-15%,-1.0%,4,5%
CCOC(=O)c1sc(N)c(C(=O)OCC)c1COC(=O)C1CC(=O)N(Cc2ccco2)C1 (stereo not drawn),2%,1.8%,-5,-9%
CCCN1C(=O)c2cc(C(=O)Nc3ccc(OC)c(OC)c3)ccc2C1Nc1ccc(OC)c(OC)c1 (stereo not drawn),0%,-2.1%,-4[21.1 µM],0%
Cc1sc(NC(=O)Cn2c(=O)oc3ccccc32)nc1-c1ccc(Cl)cc1,7%,-4.4%,4,-10%
CC(C)c1ccc(NC(=O)c2ccc3c(c2)CCN3S(C)(=O)=O)cc1,10%,-2.6%,nt,20%
CCn1c(NCCCO)nc2c(c1=O)C(C)(CC)Cc1ccccc1-2 (stereo not drawn),1%,-3.4%,6,?
Cc1cc(NS(=O)(=O)c2ccc(NC(=O)COc3ccccc3[N+](=O)[O-])cc2)no1,3%,-1.0%,nt,-22%
C/C(=N/NC(=O)CNC(=O)/C=C/c1ccco1)c1ccc(Cl)cc1,3%,-2.8%,3,-4%
CCOc1ccc(NC(=O)CCN2CCN(S(=O)(=O)c3ccc(F)cc3)CC2)cc1,13%,2.2%,nt,1%
COC(=O)c1c(NC(=O)c2ccccc2OC)sc(C(=O)N2CCOCC2)c1C,0%,0.4%,nt,-6%
O=C(CN1C(=O)NC2(CCCC2)C1=O)Nc1nc(-c2ccc(F)c(F)c2)cs1,24%,1.4%,nt,nt
O=C(Cc1cccc(NC(=O)C2CCN(C(=O)C3CC3)CC2)c1)Nc1cccc(C(=O)N2CCOCC2)c1,4%,-2.7%,nt,nt
Cc1ccc(NC(=O)c2oc3ccccc3c2NC(=O)C2CC2)cc1,0%,-0.3%,nt,0%
C=C(C)C(=O)N1CC2(CC(c3cccc(NC(=O)COc4ccc(Cl)cc4)c3)=NO2)C[C@@H]1C(N)=O (stereo partly drawn),0%,6.0%,1,22%
O=C(CCN1C(=O)c2ccccc2C1=O)NCc1ccncc1,12%,-5.8%,0,0%
Cc1ccc(C(=O)Nc2c(C)n(C)n(-c3ccccc3)c2=O)cc1S(=O)(=O)N1CCOCC1,-19%,-3.3%,3,1%
Cc1cc([N+](=O)[O-])nn1Cc1noc(C(=O)NCCc2ccccn2)n1,6%,-2.0%,nt,0%
c1ccc(Sc2cnc3ccccc3n2)cc1,-1%,-2.6%,4,-35%
Cc1cc(Br)ccc1NC(=O)CN1CCN(c2ccccn2)CC1,2%,-0.9%,nt,-6%

# 13 compounds already listed, ordered by molecular weight, ascending.
SMILES,Rango release inh,Rango-impB inh,GLA inh pH 4.5,miR-21 reporter
c1ccc(Sc2cnc3ccccc3n2)cc1,-1%,-2.6%,4,-35%
Cc1ccc(NC(=O)c2oc3ccccc3c2NC(=O)C2CC2)cc1,0%,-0.3%,nt,0%
CCn1c(NCCCO)nc2c(c1=O)C(C)(CC)Cc1ccccc1-2 (stereo not drawn),1%,-3.4%,6,?
C/C(=N/NC(=O)CNC(=O)/C=C/c1ccco1)c1ccc(Cl)cc1,3%,-2.8%,3,-4%
Cc1cc([N+](=O)[O-])nn1Cc1noc(C(=O)NCCc2ccccn2)n1,6%,-2.0%,nt,0%
CC(C)c1ccc(NC(=O)c2ccc3c(c2)CCN3S(C)(=O)=O)cc1,10%,-2.6%,nt,20%
c1ccc(CC2CCN(C(c3cccs3)c3nnnn3C3CCCC3)CC2)cc1 (stereo not drawn),9%,1.2%,-9,-7%
Cc1cc(NS(=O)(=O)c2ccc(NC(=O)COc3ccccc3[N+](=O)[O-])cc2)no1,3%,-1.0%,nt,-22%
CCOC(=O)c1sc(N)c(C(=O)OCC)c1COC(=O)C1CC(=O)N(Cc2ccco2)C1 (stereo not drawn),2%,1.8%,-5,-9%
Cc1ccc(C(=O)Nc2c(C)n(C)n(-c3ccccc3)c2=O)cc1S(=O)(=O)N1CCOCC1,-19%,-3.3%,3,1%
C=C(C)C(=O)N1CC2(CC(c3cccc(NC(=O)COc4ccc(Cl)cc4)c3)=NO2)C[C@@H]1C(N)=O (stereo partly drawn),0%,6.0%,1,22%
CCCN1C(=O)c2cc(C(=O)Nc3ccc(OC)c(OC)c3)ccc2C1Nc1ccc(OC)c(OC)c1 (stereo not drawn),0%,-2.1%,-4[21.1 µM],0%
O=C(Cc1cccc(NC(=O)C2CCN(C(=O)C3CC3)CC2)c1)Nc1cccc(C(=O)N2CCOCC2)c1,4%,-2.7%,nt,nt

# (next part)
SMILES,Rango release inh,Rango-impB inh,GLA inh pH 4.5,miR-21 reporter
COCCN(C(=O)CSc1nnc(-c2cccs2)n1N)c1c(N)n(Cc2ccccc2)c(=O)[nH]c1=O,25%,-0.3%,nt,-3%
COCCn1nnnc1CN1CCC(O)(c2cccc(C(F)(F)F)c2)CC1,15%,2.0%,6,2%
NNC(=O)CSCc1nc(-c2ccccc2)cs1,13%,-1.8%,3,-2%
O=C(Nc1ccc2nc[nH]c2c1)c1ccco1,6%,0.3%,12,-44%
CN1CCN(CCC(=O)Nc2ccc3c(c2)OCO3)CC1,-6%,-5.3%,4,-6%
COc1cc2c(cc1OC)C(c1ccccc1)CC2=O (stereo not drawn),-25%,-1.6%,-3,-10%
Cc1ccc(N(CC(=O)NCc2ccccn2)S(=O)(=O)c2ccccc2)cc1Cl,-1%,-2.1%,nt,0%
COc1ccc(C2(c3ccc(OC)cc3)NC(=O)N(CC(=O)Nc3ccccc3C)C2=O)cc1,1%,0.8%,nt,1%
COc1cc(NC(=O)c2ccccc2)c(OC)cc1NC(=O)CN1C(=O)N(C)C2(CCCCC2)C1=O,-7%,-1.7%,nt,nt
CCOC(=O)c1c(C)oc2c(F)c(F)c(F)c(F)c2c1=O,5%,2.9%,2,-9%
CCOc1cc(/C=N/Nc2nn3cnnc3c3ccccc23)ccc1O,-11%,2.1%,-4,-17%
NC1=NC(=Nc2ccc(S(=O)(=O)N3CCOCC3)cc2)c2ccccc21,8%,-0.2%,8,-1%
NC(=O)CC1NC(=O)c2ccccc21 (stereo not drawn),-4%,-0.3%,5,-4%
Cc1cc(NC(=O)CSc2nnc(-c3ccccc3)n2C)no1,1%,0.5%,1,-1%
CSC(=Nc1cccc(C)c1)NC#N,14%,-3.6%,-3,7%
CC/C(=N\N=C1\SC(C)C(=O)N1Cc1ccco1)c1ccccc1 (stereo not drawn),1%,-1.5%,-9,-3%
COc1ccc(OC)c(S(=O)(=O)N(C)CC(=O)N2CCN(c3ccccc3)CC2)c1,-1%,-3.3%,1,-13%
Cc1cccc(NC(=S)NNC(=O)CCn2nc(C)c([N+](=O)[O-])c2C)c1,-7%,1.9%,1,-17%
O=C(CCCSc1nc2ccccc2s1)Nc1nccs1,-8%,0.3%,-14,-6%
Cc1cnc(C(=O)OC(C)C(=O)Nc2ccc(Cl)cn2)cn1 (stereo not drawn),2%,-0.3%,nt,nt
Cc1cccc(NC(=O)CN(CC2CCCO2)C(=O)c2ccc(S(C)(=O)=O)cc2)c1C (stereo not drawn),21%,2.1%,nt,nt
CCn1cc([N+](=O)[O-])c(C(=O)N2N=C(c3ccc(O)c(OC)c3)CC2c2ccccc2O)n1 (stereo not drawn),4%,5.3%,14,-18%
CCC1Nc2ncnc(N3CCN(c4ccccn4)CC3)c2N(Cc2ccc(Cl)cc2)C1=O (stereo not drawn),-8%,0.5%,nt,nt
Cc1ccc(C)c(NC(=O)c2ccc3c(=O)n4c(nc3c2)CCC4)c1,7%,-0.5%,nt,nt
COc1ccc(N2CCN(C(CNC(=O)C(=O)NCCc3c[nH]c4ccccc34)c3ccco3)CC2)cc1 (stereo not drawn),21%,4.4%,6,-4%
CS(=O)(=O)N1CCC(C(=O)Nc2ccc3c(c2)OCO3)CC1,1%,-4.9%,3,0%
COc1ccc(NC(=O)CC2(Cc3ccccc3)CCOC(C)(C)C2)cc1 (stereo not drawn),8%,1.3%,?,-12%
CCOC(=O)C1=C(C)NC(=O)NC1/C=C\c1ccccc1 (stereo not drawn),7%,0.0%,nt,-5%
CCOc1ccccc1NC(=O)CSc1nnc(-c2ccco2)n1Cc1ccco1,-6%,-0.7%,3,-4%
N#CCCn1nc(-c2ccccc2)cc1Nc1ccccc1NC(=O)C(F)(F)F,-12%,?,1,-3%
CCN(CC)c1ccc(S(=O)(=O)N2CCOCC2)cc1NC(=O)CNCc1ccccc1,23%,3.6%,-15,-9%
CC(C)C(NS(=O)(=O)c1cccc2nsnc12)C(=O)N1CCCCC1 (stereo not drawn),6%,-0.6%,nt,2%
CC(=O)CCc1ccc(OCC(=O)Nc2cccc(S(=O)(=O)N(C)c3ccccc3)c2)cc1,5%,-0.2%,nt,nt
CCOC(=O)C1CCN(C(=O)Nc2ccccc2Cl)CC1,6%,5.4%,5,-11%
O=C(Cn1c2ccccc2c2nc3n(c(=O)c21)CCS3)Nc1ccccc1C(F)(F)F,-3%,-0.1%,-1,-2%
COc1ccc(C)cc1NC(=O)CNc1ccc(C(C)=O)cc1,0%,0.2%,-8,0%
CCCCn1c(N)c(NCc2ccccc2OC)c(=O)[nH]c1=O,-25%,?,10,-2%
Cc1nnc(NC(=O)NC(C)N2C(=O)C3C4C=CC(C4)C3C2=O)s1 (stereo not drawn),31%&-14%,-2.2%&-0.1%,4,-1%
COc1ccc(C(=O)c2ncc(C(F)(F)F)cc2Cl)cc1,0%,-0.9%,10,-5%
CC1CN(C(=O)/C=C/c2ccccc2Cl)CC(C)O1 (stereo not drawn),12%,-1.3%,nt,-7%
CC(C)c1ccc(Oc2cccc(C(=O)/C(C#N)=C/N(C)C)c2)cc1,-22%,-0.5%,-2,-12%
CC(C)CC(=O)Nc1sc2c(c1C(=O)O)CCCCC2,-2%,-0.1%,12,3%
COc1ccc(N=C2NC(=O)S/C2=C\c2ccc(N(C)C)cc2)cc1,?,?,1,-52%
COc1ccc(-c2[nH]ncc2CN2CCN(Cc3cccs3)CC2)cc1F,-13%,-1.1%,2,-2%
O=C(c1ccc(CS(=O)Cc2cccc(Cl)c2)o1)N1CCN(C2CCCCC2)CC1 (stereo not drawn),15%,2.8%,nt,-1%
Cc1ccc(CN2CCN(/N=C/c3ccc(C(F)(F)F)cc3)CC2)cc1,-7%,1.7%,-12,-6%
Cc1cccc(-c2nc3ccccc3c(=O)n2NC(=O)c2cccs2)c1,8%,2.6%,7,-7%
CCCC(C(=O)NC1CCCCC1)N(Cc1ccco1)C(=O)CNS(=O)(=O)c1ccccc1 (stereo not drawn),-12%,0.6%,1,-2%
CC(=O)Nc1ccc(S(=O)(=O)NCCC(=O)OCC(=O)c2ccc(Br)cc2)cc1,-5%,0.0%,nt,nt
CC(=O)Oc1cc2c(cc1Cl)C(c1cccs1)CC1(CC(C)(C)NC(=S)N1)O2 (stereo not drawn),3%,-0.2%,1,4%
# Later entries
SMILES,Rango release inh,Rango-impB inh,GLA inh pH 4.5,miR-21 reporter
COCCn1c(SCc2ccc(Cl)cc2)nc2c1c(=O)[nH]c(=O)n2C,8%,1.2%,nt,nt
COc1ccc(S(=O)(=O)N(CCc2ccccc2)CC(=O)O)cc1Cl,1%,0.6%,4,-5%
COC(=O)c1ccc(NCN2C(=O)C3C4CCC(C4)C3C2=O)cc1 (stereo not drawn),2%,0.3%,0,2%
Cc1cc(Nc2cccc(O)c2)c2ccccc2n1,nt,nt,-5,0%
CC(C)(C)n1nc2c(c1NC(=O)c1ccccc1)CS(=O)(=O)C2,9%,-4.2%,-6,-3%
COc1ccc(-n2c(SCCNCCO)nc3sc4c(c3c2=O)CCCC4)cc1,5%,2.6%,nt,1%
CC(=O)Nc1ccc2c(c1)nc(CCN1CCN(C)CC1)n2C,18%,3.2%,1,-1%
COc1ccc(/C=C/C(=O)N(C)C2CCS(=O)(=O)C2)cc1OC (stereo not drawn),0%,-0.1%,1,-2%
CO[C@@H]1O[C@@H]2COC(c3ccccc3)O[C@@H]2[C@@H](OC)[C@@H]1O (stereo partly drawn),3%,-0.8%,nt,-7%
